Assay outcomes: PubChem BioAssay, several laboratories
BJeLR viability: BJeLR cell viability loss; BJeLR (HRASV12) viability, CellTiter-Glo ATP luminescence, 48 h; reference of the scale not given here; inhibition, % (concentration not given with the values); actives 0.17% (n = 300,000);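 active means replicate mean above 50%; inconclusive means above 50% but judged a plate artefact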;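 further: 50 nL library stock added to about 25 µL; numbers are from one replicate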
ugtP null kill: growth inhibition of S. aureus ugtP deletion strain; S. aureus RN4220 ugtP deletion, OD600 growth, 16 h; some inactives read as strong as hits; growth inhibition, % (no concentration beside the values); actives 0.54% (n = 330,000);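 active means z-score under -3 and OD600 up to 0.15 on both plates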;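 further: plate controls were untreated wells for no effect and antibiotic for full effect; wells of about 80 µL received 100 nL stock; the first replicate is given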
PrP UTR inh: suppresses PrP 5' UTR mRNA reporter expression. cell-based PrP 5' UTR mRNA reporter, plate reader. inhibition, % (no concentration beside the values). actives 0.35% (n = 340,000);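 active means every replicate at 50% or more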;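 further: 0 = median of the neutral control wells; tested in H4 reporter cells; numbers are from one replicate; inactives centre near -14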
Autofluor counter: counter-screen for toxin protease inhibitors: compound fluorescence; actives 3.1% (n = 360,000); compound autofluorescence counterscreen, microsphere flow cytometry; hits give high values; fluorescence intensity (concentration not given with the values); AID 624483;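 active means at least 3 SD above the mean of all compounds, about 16000 in these data; inconclusive means too few beads counted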;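 further: 100 nL of 1 mM stock went into each well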
RN4220 kill: S. aureus RN4220 growth inhibition; OD600, 16 h; inhibition, % (no concentration beside the values); actives 0.33% (n = 330,000); AID 1259311;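 active means z-score of -3 or lower and OD600 up to 0.18 on both plates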;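 further: plate controls were untreated cells for no effect and reference antibiotic for full effect; stock transfer was 100 nL into about 80 µL; one replicate is shown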
Mtb hypoxia inh: Mtb hypoxia fluorescent reporter inhibition; M. tuberculosis hypoxia-regulated fluorescent reporter, fluorescence; actives 0.1% (n = 300,000); fluorescence inhibition, % (test concentration not listed);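 active means 35 to 45% if threefold the growth effect, above 45% if 1.5-fold the growth effect; inactive means the rest, general growth blockers included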;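 further: wells of about 50 µL received 100 nL stock; 0% = vehicle wells and 100% = reference inhibitor wells; whole bacteria with a GFP reporter of the hypoxia response; strong numbers were not always called active; many hits fall short of the cut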
Mtb hypoxia inh growth: also measured in Mtb hypoxia inh; calls as there; growth inhibition, %; measured here: M. tuberculosis growth (absorbance);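 0% = vehicle and 100% = reference antibiotic; read after six days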
An asterisk follows results filed as active; u = inconclusive; x = no result given.

SMILES	BJeLR viability	ugtP null kill	PrP UTR inh	Autofluor counter	RN4220 kill	Mtb hypoxia inh	Mtb hypoxia inh growth
Cc1cc2ccccn2c1C(=O)Nc1cccc(Cl)c1	x	1	12	4680	12	-3	3
O=[N+]([O-])c1ccc(NC(=S)NCC(c2cccnc2)N2CCOCC2)cc1 (configuration not stated)	11	10	-16	2749	2.1	6	2
COc1cccc(C=NNC(=O)CNC(=O)c2ccc(S(=O)(=O)N3CCCC3)cc2)c1OC	x	10	x	x	1.9	1	9
O=c1ccn(-c2ccccc2)[nH]1	4	12	46	4523	-0.2	17	15
CCOC(=O)C(=NC1CCS(=O)(=O)C1)NNc1cc(Cl)ccc1Cl (configuration not stated)	-4	16	-22	4377	0.9	-2	6
CCOc1ccc2oc(=O)cc(CN3CCN(C(=O)c4ccco4)CC3)c2c1	3	7	5	4609	3.1	6	-2
Cc1ccc(S(=O)(=O)N2CN3CCN(C3)C2)cc1	-30	-8	-36	8386	-1.9	-2	1
CCCC1CCCO[C@@](C(=O)NCc2ccc(S(C)(=O)=O)cc2)(C(F)(F)F)C1 (some centres not stated)	x	-3	x	x	3.0	3	-3
CC1CCCC(C)N1C(=O)COC(=O)CCc1nc2ccccc2c(=O)[nH]1 (configuration not stated)	-22	5	-9	2466	5.3	7	0
COC(=O)c1ccc(N(CC(=O)NC2CCCCC2)C(=O)CNC(=O)c2ccco2)cc1	6	3	-22	3230	-2.5	7	6
O=C(NCCCn1ccnc1)C(=O)NCC(c1cccnc1)N1CCN(c2ccc(F)cc2)CC1 (configuration not stated)	-1	-3	-20	4277	-14	4	9
CC(C)Oc1cc(S(=O)(=O)N2CCCCC2)ccc1N	0	-1	-18	2249	2.3	-4	0
COc1ccc(C=NN2CCN(Cc3ccc(C)cc3)CC2)cc1Br	x	14	x	x	0.3	5	-1
COC(=O)C1=CN(C2CC2)C=C(C(=O)OC)C1c1ccc(C(=O)OC)cc1	2	-1	-7	5777	-0.1	-6	7
CCOC(=O)CNC(=O)COc1ccc(Cl)cc1Br	0	-13	-15	23269*	11	0	8
CC1CCCCN1S(=O)(=O)c1ccc(C(=O)N(CCCN(C)C)c2nc3cc4c(cc3s2)OCO4)cc1 (configuration not stated)	6	2	4	5885	-1.9	5	1
COc1ccc(NC(=O)c2cccc(S(=O)(=O)Nc3ccc(Br)cc3)c2)cn1	11	-17	0	2122	-6.0	-1	-2
CN(C)C(=O)CNC(=O)CN1C(=O)NC2(CCCc3sccc32)C1=O (configuration not stated)	-3	1	-21	3722	4.0	2	2
O=C1CC(SCCO)C(=O)N1c1ccc(Oc2ccccc2)cc1 (configuration not stated)	3	-2	-25	9422	8.0	7	8
CCOc1cc(CNn2nnnc2N)cc(Cl)c1OCC(=O)NC(C)(C)C	3	-8	-4	9081	-0.4	-5	1
N#Cc1cc(Cl)c(N2CCOCC2)cc1C#N	6	3	-11	4652	1.1	x	x
Cc1c(F)cccc1NS(=O)(=O)c1ccc2c(c1)NC(=O)CO2	3	-8	-17	2085	31	3	14
CN(C)c1ccc(NC(=O)CC(NCc2ccccn2)C(=O)O)cc1 (configuration not stated)	0	3	-12	2382	-3.6	5	-2
CC(=O)Oc1ccc(/C=N/NC2=NS(=O)(=O)c3ccccc32)cc1	9	x	-45	3609	x	x	x
COc1ccc(C2=NOC(C(=O)O)C2)cc1 (configuration not stated)	-2	-1	-5	4176	3.3	7	18
COc1ccc(N2CCN(S(=O)(=O)CCNC(=O)c3cc(=O)c4ccccc4o3)CC2)cc1	-14	7	9	4044	2.0	3	-7
ON=Cc1cccn1-c1ccc(O)cc1	x	-5	x	x	3.1	-7	-28
CN(C)C(CNC(=O)c1ccc(NS(=O)(=O)c2ccc(F)c(F)c2)cc1)c1ccccc1 (configuration not stated)	0	3	-14	u	1.8	10	-1
NC(N)=NC(N)=Nc1ccc(O)cc1	-6	4	-7	4795	4.1	11	11
COC(=O)C1=C(C)N=C2SC(C)C(=O)N2C1/C=C/c1ccccc1 (configuration not stated)	-2	-1	-19	5920	2.1	0	3
Cc1ccc(N(C(=O)c2csnn2)C(C(=O)NC2CCCC2)c2ccccn2)c(C)c1 (configuration not stated)	2	0	-44	3592	1.7	-13	-10
CC(=O)NCCOc1nc(N(C)C)nc(N(C)C)n1	-3	12	-22	7960	5.9	4	-4
CN(/N=C/c1ccc(C(C)(C)C)cc1)C1=NCCN1	4	x	-4	3869	x	x	x
O=[N+]([O-])c1ccc(-c2cccnc2)cc1	x	6	-12	3100	6.2	10	4
CSc1nsc(SCC(=O)NC2CCCCC2)n1	3	-1	-18	2209	5.0	x	x
Cc1occc1-c1nnc(SCC(=O)N(C)CCC#N)n1N	-6	4	4	5438	4.5	x	x

Whole records from above:
ON=Cc1cccn1-c1ccc(O)cc1 in the list: BJeLR viability: x; ugtP null kill: -5; PrP UTR inh: x; Autofluor counter: x; RN4220 kill: 3.1; Mtb hypoxia inh: -7; Mtb hypoxia inh growth: -28
CN(/N=C/c1ccc(C(C)(C)C)cc1)C1=NCCN1 in the list: BJeLR viability: 4; ugtP null kill: x; PrP UTR inh: -4; Autofluor counter: 3869; RN4220 kill: x; Mtb hypoxia inh: x; Mtb hypoxia inh growth: x

2 records drawn at random from those above, as already listed:
SMILES	BJeLR viability	ugtP null kill	PrP UTR inh	Autofluor counter	RN4220 kill	Mtb hypoxia inh	Mtb hypoxia inh growth
CCOc1ccc2oc(=O)cc(CN3CCN(C(=O)c4ccco4)CC3)c2c1	3	7	5	4609	3.1	6	-2
CCOc1cc(CNn2nnnc2N)cc(Cl)c1OCC(=O)NC(C)(C)C	3	-8	-4	9081	-0.4	-5	1

Further entries
SMILES	BJeLR viability	ugtP null kill	PrP UTR inh	Autofluor counter	RN4220 kill	Mtb hypoxia inh	Mtb hypoxia inh growth
CC1CCCCC1NC(=O)NC(=O)COC(=O)c1cncc(Br)c1 (configuration not stated)	x	-1	-21	u	-0.3	-6	1
Cc1cccc(NC(=O)CN2CCc3cc4c(cc3C2)OCCCO4)c1	-1	-3	-13	5122	-4.8	7	11
CC1=CC(C)C(C(=O)O)C(C(=O)N2CCN(C)CC2)C1 (configuration not stated)	3	x	-19	4458	x	x	x
Cc1ccc(C(=O)COC(=O)c2cccs2)cc1	9	7	-16	3981	5.2	19	5
Cc1ccc(C(=O)OCC(=O)N2C(C)CCCC2C)cc1S(=O)(=O)N1CCCCC1 (configuration not stated)	-1	13	-21	6752	-0.6	6	6
O=C(Nc1cccc(O)c1)c1ccc(C(F)(F)F)cc1	9	-6	-83	4322	1.1	7	10
Cc1cc(C)n(C(=O)CNC(=O)CCc2ccccc2)n1	0	-3	-18	9157	2.2	8	0
CCOC(=O)C1=CN(C)CCC1=O	x	6	-13	3441	1.6	1	0
Cc1cc(C(=O)NCCN2C(=O)S/C(=C\c3cccs3)C2=O)ccc1[N+](=O)[O-]	-2	-3	-8	2024	2.1	x	x
CCNC(=S)Nc1cccc([N+](=O)[O-])c1	1	-11	x	x	1.8	2	8
CCN(CC)CCCNc1cc(C)nc2cc(-c3cccs3)nn12	-2	5	-8	3306	-0.3	4	0
CCOc1ccccc1-n1nnnc1SCC(=O)N1CCCC1=O	x	2	4	6249	2.6	3	-1
COc1ccc(Nc2nc(N)nc(CSC(=S)N3CCC(C)CC3)n2)cc1	-13	-1	-15	2173	5.0	7	2
CCOC(=O)c1ccc(NC(=O)CN2C(=O)CSC2=O)cc1	1	0	-11	22745*	4.5	-2	3
CC1CCN(C(=O)c2ccc(S(=O)(=O)NCc3ccco3)cc2)CC1	-8	2	-2	5835	5.6	-13	8
Cc1ccc(C=NNC(=O)CNC(=O)c2ccc(S(=O)(=O)N(C)C)cc2)cc1	x	-4	x	x	1.7	7	4
O=C(Cn1ccc(NC(=O)OCc2ccccc2)nc1=O)NCc1ccc2c(c1)OCO2	x	-6	-11	3953	4.8	1	-1
COc1cc(/C=C/C(=O)O)ccc1OCc1ccc([N+](=O)[O-])cc1	-3	8	-12	1996	3.1	3	2
COc1ccc(N2CCN(C(=O)COc3ccc4ccccc4c3)CC2)cc1	-5	-10	-11	3011	-17	6	-1
COc1ccc(OC)c(-n2c(O)c(C=Nc3c(C)n(C)n(-c4ccccc4)c3=O)c(=O)[nH]c2=O)c1	3	8	-25	2664	6.8	1	1
Cc1nn(CC(=O)Nc2cccnc2)c(C)c1[N+](=O)[O-]	1	3	-10	4205	3.5	7	9
COc1ccc(NC(=O)CN(C)C(=O)CN2C(=O)NC3(CCCCC3)C2=O)cc1	x	-3	-10	3959	-3.5	-8	-3
Cc1cc(NC(=O)c2ccc(F)cc2)n(-c2ccccc2)n1	3	-1	-13	3617	-1.2	7	-4
CCOC(=O)C1=C(C)N=C2SCCC(=O)N2C1c1ccc(OC)cc1 (configuration not stated)	0	6	x	x	1.4	-2	4

Filtered by structure: the entries above with a tert-butyl group.
SMILES	BJeLR viability	ugtP null kill	PrP UTR inh	Autofluor counter	RN4220 kill	Mtb hypoxia inh	Mtb hypoxia inh growth
CCOc1cc(CNn2nnnc2N)cc(Cl)c1OCC(=O)NC(C)(C)C	3	-8	-4	9081	-0.4	-5	1
CN(/N=C/c1ccc(C(C)(C)C)cc1)C1=NCCN1	4	x	-4	3869	x	x	x

(continued)
SMILES	BJeLR viability	ugtP null kill	PrP UTR inh	Autofluor counter	RN4220 kill	Mtb hypoxia inh	Mtb hypoxia inh growth
COc1ccccc1N1CCN(N=Cc2c(C)nn(-c3ccccc3)c2C)CC1	x	6	x	x	6.9	11	9
Cc1nc2ccccc2cc1O	4	-2	-16	2361	0.1	x	x
COC(=O)[C@H](CC(C)C)NC(=O)Nc1ccc(S(N)(=O)=O)cc1	-10	2	0	3541	2.8	1	-4
O=C1CCC(C(=O)Nc2ccc([N+](=O)[O-])cc2)N1 (configuration not stated)	x	2	-15	4721	-0.7	6	7
CC(=O)OCC(=O)[C@H]1CC[C@H]2[C@@H]3CC=C4C[C@@H](O)CC[C@]4(C)[C@H]3CC[C@]12C	-12	x	4	5686	x	x	x
Cc1cc(C)n2nc(SCC(=O)Nc3ccc(F)c(F)c3F)nc2n1	x	-1	-24	8044	6.8	8	8
O=S(=O)(c1ccccc1)c1ncc(C(F)(F)F)cc1O	6	1	-13	2166	6.3	-1	-10
O=C(NCCC(=O)N1CCN(C(=O)c2ccco2)CC1)c1ccccc1Cl	x	-2	-19	3867	4.2	17	9
CC(C)=CCN1CCN(Cc2cnc(N3CCOCC3)s2)CC1CCO (configuration not stated)	0	9	-24	3220	6.7	-6	-2
CCN(CC(=O)Nc1ccc(NC(C)=O)cc1)C(=O)c1ccccc1SCc1c(C)noc1C	-6	2	-6	u	5.4	-1	-8
Cc1cc(NC(=O)CSc2ncccn2)no1	6	8	-7	9148	1.3	6	1
COc1cc(C(O)CNC(C)C)cc(F)c1OC (configuration not stated)	4	2	1	2992	5.2	4	7
COc1cc(C=CC(=O)O)cc(S(=O)(=O)NCCCC(=O)O)c1OC	x	-1	x	x	2.2	8	11
Cc1ccnc2nc(C(=O)NC3CCCc4ccccc43)nn12 (configuration not stated)	x	-1	0	3224	-2.2	16	3
CCOC(=O)C1CCN(C(=O)COc2ccc(Cl)cc2C)CC1	3	-5	-5	2363	3.8	x	x
CC1CCN(CCCn2c(=S)[nH]c3ccccc3c2=O)CC1	2	-5	5	x	-1.6	20	19
CCn1c(=O)c(C(=O)NCCNCCO)c(O)c2ccccc21	2	-5	-11	3188	2.2	7	5
Cc1ccc(N2C(=O)CN=C2Nc2nc(C)cc(C)n2)cc1	11	2	-21	4113	1.3	8	3
C=CCC(CC(=O)NCCO)C(=O)NC(COC(=O)C(CC=C)Cc1ccc(F)cc1)c1ccccc1 (configuration not stated)	x	17	x	x	9.6	11	4
CN1CCC(N(C)C(=O)CCc2nc3ccccc3n2-c2ccccc2)CC1	1	7	-13	4100	10	16	4
Clc1ccc(OCc2cc(-c3ccccc3)no2)cc1Cl	0	-5	-21	11359	2.1	4	5
Cn1c(N2CCN(C(c3ccccc3)c3ccccc3)CC2)nc2c1c(=O)[nH]c(=O)n2C	15	11	-9	3799	3.6	-2	5
Cn1c(=O)oc2cc(S(=O)(=O)Nc3ccccc3O)ccc21	9	-3	7	2926	0.1	-5	-5
Cc1ccccc1NS(=O)(=O)c1ccc2c(c1)NC(=O)CO2	8	2	-13	4858	14	1	3
O=C(COc1ccccc1)N1CCN(CC2CC=CCC2)CC1 (configuration not stated)	-3	4	-19	3901	4.3	x	x
COc1ccc(CCN2CC(C(=O)NCCc3cccnc3)CCC2=O)cc1 (configuration not stated)	-1	7	-10	6153	3.2	7	-1
CCc1nnc2n1N=C(c1ccc(Cl)cc1)CS2	0	-2	x	3882	2.3	8	3
CCSc1nc2c(c(-c3ccc(C)o3)c1C#N)CCCC2	6	22	8	4435	-11	x	x
